Bioassay records from PubChem.
VDR inh: blocks the human vitamin D receptor; P11473; AID 504847; Potency, µM, for inactives: max response, negative = inhibition, usual class: inhibitors; 0.93% of 400,000 active; VDR-SRC2-3 peptide fluorescence polarization, 2 h; active = well fitted inhibition curve with a large enough effect; inconclusive = small, poorly fitted or top-dose-only effect, or another doubt; inactive = no such curve, though single readings can be large or run the other way; note: series mostly up to about 120 µM
Target sequence (P11473 whole entry, looked up): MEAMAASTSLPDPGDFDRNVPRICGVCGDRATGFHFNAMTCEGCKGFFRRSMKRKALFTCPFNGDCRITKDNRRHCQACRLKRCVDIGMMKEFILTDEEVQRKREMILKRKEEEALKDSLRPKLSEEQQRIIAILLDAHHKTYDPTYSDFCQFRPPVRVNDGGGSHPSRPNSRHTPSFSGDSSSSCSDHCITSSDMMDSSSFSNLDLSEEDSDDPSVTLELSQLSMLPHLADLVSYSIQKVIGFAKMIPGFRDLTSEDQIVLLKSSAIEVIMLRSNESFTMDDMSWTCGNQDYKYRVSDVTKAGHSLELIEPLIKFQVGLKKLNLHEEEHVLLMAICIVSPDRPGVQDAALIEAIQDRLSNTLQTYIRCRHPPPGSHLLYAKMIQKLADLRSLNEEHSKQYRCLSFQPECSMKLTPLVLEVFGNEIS
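Fluorescence polarization assay of small-molecule disruption of VDR binding to coregulator peptide SRC2-3. Compounds and controls pin-transferred, then read after 2 h incubation at ambient room temperature.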
* = called active by the depositor; ? = inconclusive; & = joins results of further samples; [ ] = remark or other dose. % is set by controls: 0 for no effect and ±100 for the full control effect; potency is the fitted concentration of half-maximal effect.

VDR inh,mol
?,CC(C)(C)NC(=O)C(c1ccncc1)N(Cc1ccc(F)cc1)C(=O)c1ccc(-c2ccccc2)[nH]1 (stereo not drawn)
-3%,CCOc1cc(C(=O)NCC(C)(C)CNC(=O)c2cc(OCC)c(OCC)c(OCC)c2)cc(OCC)c1OCC
-4%,C=C(C)C(=O)C1CCCCC1
-8%,C/C(=N\N(Cc1ccccc1)c1ccccc1)c1ccncc1
-29%,Cc1nn(-c2ccccc2)c(Cl)c1/C=N/NC(=O)c1ccn[nH]1
6%,CC1CCC(NC(=O)c2ccc(CSc3nc4ccncc4n3Cc3ccc(F)cc3)cc2)CC1 (stereo not drawn)
5%,NC(=O)CSc1nnc(-c2ccc(S(=O)(=O)N3CCCCC3)cc2)n1-c1ccccc1
14%,COc1ccccc1OCC(=O)Nc1nc(C)c(C)s1
?,COc1ccc(S(=O)(=O)N(C)CC(=O)N2CCCCCC2)cc1
12%,CCOC(=O)CC1(C)NC(C(=O)O)C(C)(C)S1 (stereo not drawn)
3%,CCNc1nc(NC(C)(C)C)nc(SCC(N)=O)n1
17%,CSCCC(N=C(NS(=O)(=O)c1ccc(Br)cc1)c1ccccc1)C(=O)O (stereo not drawn)
-4%,COC(=O)C(C)Sc1nnc2n(-c3cccc(C)c3)c(=O)c3c4c(sc3n12)CCCC4 (stereo not drawn)
19%,COc1ccc(NC(=O)c2cc(C)no2)cc1
-2%,OCC1O[C@H](O)C(Cl)C(O)C1O (stereo partly drawn)
-4%,CCOC(=O)CCCCC(=O)c1[nH]c(=O)[nH]c1CSc1nc(C)cc(=O)[nH]1
0%,COc1cc(OC)cc(-c2cc3ncccc3cn2)c1
-22%,COc1ccc2nc(N3CCN(C(=O)c4ccc([N+](=O)[O-])o4)CC3)sc2c1
4%,CC(C(=O)Nc1sc2c(c1C#N)CCCCC2)N1C(=O)c2ccccc2C1=O (stereo not drawn)
-6%,COc1ccccc1NC(=O)COC(=O)c1ccc(S(=O)(=O)N2CCCCCC2)cc1
-25%,Cn1nnnc1SCC1=C(C(=O)O)N2C(=O)[C@@H](NC(=O)[C@H](O)c3ccccc3)[C@H]2SC1
1%,COc1ccc(S(=O)(=O)N2CCC(C(=O)NC3CCCCC3)CC2)cc1OC
-14%,O=c1cnc2cnc(Oc3ccccc3)nc2n1C1CC1
6%,Cc1ncsc1C(=O)N1N=C2/C(=C/c3ccccc3)CCCC2C1c1ccccc1 (stereo not drawn)
14%,Cc1cc(=O)oc(C)c1C(=O)Nc1cnc2ccccc2c1

Entries above containing a COOH group (3):
VDR inh,mol
12%,CCOC(=O)CC1(C)NC(C(=O)O)C(C)(C)S1 (stereo not drawn)
17%,CSCCC(N=C(NS(=O)(=O)c1ccc(Br)cc1)c1ccccc1)C(=O)O (stereo not drawn)
-25%,Cn1nnnc1SCC1=C(C(=O)O)N2C(=O)[C@@H](NC(=O)[C@H](O)c3ccccc3)[C@H]2SC1

(continued)
VDR inh,mol
-9%,CN(C)c1ccc(C(CNC(=O)c2cccc(C(F)(F)F)c2)N2CCCC2)cc1 (stereo not drawn)
9%,COc1ccc2cc3cc(C(=O)NCc4ccco4)oc3nc2c1
2%,O=C1NC(=O)C2(COC(c3ccccc3Cl)OC2)S1 (stereo not drawn)
7%,CN1CCN(C(=O)C2=C[C@@H](C3CCCCC3)C[C@@H](OCCCCO)O2)CC1
56µM*,O=C(/C=C/c1ccc([N+](=O)[O-])cc1)c1cccnc1
-7%,CCOc1ccc(NC(=O)NCCCCc2ccccc2)cc1
-10%,CC1=C(C(=O)OCc2ccccc2)C(c2ccc([N+](=O)[O-])cc2)NC(=O)N1CCCCCC(=O)O (stereo not drawn)
-3%,CCOC(=O)c1c(C)c(C(=O)NC2CCCCC2)c(C)n1CC
-12%,COC(=O)c1sc(-c2ccccc2)cc1NC(=O)c1ccc(F)cc1
-20%,C#CCN1[C@@H]2CCN(C2)c2cc(Br)ccc2S1(=O)=O
-8%,COCCn1c(=S)[nH]c2ccc(N(C)C)cc2c1=O
-4%,O=C1CCc2cc(S(=O)(=O)Nc3ccccc3F)ccc2N1
-27%,O=C1CC(c2c(Cl)cccc2Cl)c2c(ccc3ccccc23)N1 (stereo not drawn)
-1%,CCOC(=O)Cn1c2ccccc2c2nc(C)sc21
-13%,COc1ccc(F)cc1C(=O)C1CCCN(Cc2ccc3c(c2)OCCO3)C1 (stereo not drawn)
-18%,CC(=O)Nc1cccc(OCc2cnc(Cl)s2)c1
-4%,CCOc1ccccc1CN1CCN(Cc2csc(C(C)=O)c2)CC1CCO (stereo not drawn)
?,CC(NC(=O)c1ccc([N+](=O)[O-])o1)C12CC3CC(CC(C3)C1)C2 (stereo not drawn)
-5%,COc1ccc(-c2c(C)sc(NC(=O)c3ccnn3C)c2C#N)cc1
-11%,CCN(C(=O)Cn1nc(Cc2cccnc2)c2ccccc2c1=O)c1ccccc1F
18%,Cc1nnc(NC(=O)C(C)Sc2nnc(CCNC(=O)c3ccccc3F)n2C)s1 (stereo not drawn)
15%,C=CCOc1ccc(C(=O)NC2CCCCC2)cc1
-8%,CC(=O)c1sc(N/N=C/c2ccc(C(C)C)cc2)nc1C
17%,O=C1CCCc2c1cc(C(=O)NC1CCSC1=O)c(=O)n2-c1ccccc1 (stereo not drawn)
?,O=C(CN1C(=O)NC2(CCCC2)C1=O)Nc1nc2ccc(F)cc2s1
?,O=C(c1ccc(S(=O)(=O)N2CCCCCC2)cc1)N1CCN(c2ccccc2)CC1
-2%,Cc1ccc(C(=O)c2oc3ccccc3c2NC(=O)Cc2coc3cc(C)ccc23)cc1
?,C=CCn1c(SCC(=O)c2ccccc2)nnc1-c1ccc2c(c1)OCO2
5%,O=C(CN1CCN(S(=O)(=O)/C=C/c2ccccc2)CC1)NC(=O)NCc1ccco1
?,COc1cc2c(cc1C1C(C#N)=C(N)OC3=C1C(=O)CC(C)(C)C3)OCO2 (stereo not drawn)
-5%,COC(=O)c1ccc(S(=O)(=O)N2CCc3ccccc32)cc1
-1%,CC(=O)Nc1cc(-c2ccccc2)ccc1O
-6%&-1%,Cc1ccccc1CNc1ncnc2c1ncn2C1OC(CO)C(O)C1O (stereo not drawn)
15%,O=C(NNc1ccc(C2CCCCC2)cc1)C(O)(c1ccccc1)c1cccs1 (stereo not drawn)
-7%,COc1cccc(-c2c(C(=O)N/N=C(\C)c3cccnc3)nnn2-c2nonc2N)c1
-12%,COc1ccc(C)cc1NC(=O)C(C)N(c1ccc(C)cc1)S(C)(=O)=O (stereo not drawn)
1%,C=CCOc1cccc(CNn2nnnc2N)c1
-10%,CNC(=S)N(CCc1ccc(OC)c(OC)c1)C1CC(=O)N(c2ccccc2)C1=O (stereo not drawn)
?,CC(C)c1nc(SCC(=O)Nc2cccc(C(=O)O)c2)c2c3c(sc2n1)CCCC3
-20%,CCN(CC(=O)NCc1ccc(F)cc1)S(=O)(=O)c1ccc(Cl)s1
-12%,CCN(CC)CCNc1ccc(C)c2sc3ccc(O)cc3c(=O)c12
-3%,Cc1cc(C)cc(NC(=O)c2sc3nc(-c4cc5ccccc5oc4=O)[nH]c(=O)c3c2C)c1
-2%,CCC1CCCCN1S(=O)(=O)Cc1ccccc1Cl (stereo not drawn)
-2%,Nc1ccc(Br)cc1-c1nc2ccccc2[nH]c1=O
-12%,CC(=O)Nc1ccc(S(=O)(=O)N2CCC(NC(=O)C(Cc3ccccc3F)NC(C)=O)CC2)cc1 (stereo not drawn)
-16%,COc1cc2nc(CN(C)Cc3ccc(OC)c(OC)c3OC)[nH]c(=O)c2cc1OC
-5%,COc1cccc(CSc2nc3n(n2)C(c2ccccc2C)C(C(=O)Nc2ccccc2OC)=C(C)N3)c1 (stereo not drawn)
8%,O=C(Nc1ccc(F)cc1)C1CCCN1S(=O)(=O)c1ccc(Br)cc1 (stereo not drawn)
-2%,Cc1cccc(N2CCN(C(=O)CNC(=O)c3ccccc3)CC2)c1C
?,COc1cc(C(=O)Oc2c(Sc3ccc(C)cc3)c(C)nn2-c2ccccc2)cc(OC)c1OC

Records listed above shown as hits in VDR inh.
VDR inh,mol
56µM*,O=C(/C=C/c1ccc([N+](=O)[O-])cc1)c1cccnc1

(more compounds)
VDR inh,mol
-6%,CCN1CCN(C(=O)c2cn(CC)c3ccc(S(=O)(=O)N(C)C)cc3c2=O)CC1
-1%,CCOc1ccc(OCC)c(NC(=O)CN2CCN(CC)CC2)c1
8%,CCN(CC)CCNC(=O)C1CCN(c2nn3cc(-c4ccc(F)cc4)nc3s2)CC1
-1%,O=C(CNS(=O)(=O)c1ccc(F)cc1)N1CCOCC1
32%[activator],O=C(c1ccc(N2CCN(C(=O)c3ccccc3Br)CC2)cc1)c1cccc(F)c1
?,Cc1ccc(-c2csc(NC(=O)C3CC(=O)N(c4ccc5c(c4)OCCO5)C3)n2)o1 (stereo not drawn)
?,CCOC(=O)C1=C(C)c2ccccc2N(C(=O)OC)C1(C)C(=O)OCC (stereo not drawn)
12%,O=S(=O)(c1ccc(Cl)s1)N1CCC(Cc2ccccc2)CC1
-12%,O=C(O)COc1ccccc1/C=N/NC(=O)c1cc(-c2ccc(Cl)cc2)nc2ccccc12
-7%,Cn1c(SCCOc2ccccc2F)nc2ccccc2c1=O
1%,COc1cc2nc(SCC(=O)Nc3c(C)cc(C)cc3C)n3nc(CCn4c(C)nc5ccccc54)nc3c2cc1OC
-8%,COc1ccc(-c2c(C(F)(F)F)nn(C)c2NC(=O)CSCC(=O)O)cc1
-13%,CC(OC(=O)c1cccc(Cl)c1)C(=O)NC1CCCCC1C (stereo not drawn)
-4%,COC(=O)c1ccc(NC(=O)c2cc3cc(C)ccc3n2C)cc1
4%,CCN1/C(=C2\C(=O)N(C)C(=S)N2C)C=Cc2cc(C)ccc21
-5%,O=C(OCc1ccccc1)N1CCC2CC1c1cc(N3CCCCC3)ccc12 (stereo not drawn)
6%,Nc1nonc1C(=O)N/N=C/c1ccc(Br)o1
-14%,COc1cccc([C@@H]2Oc3ccc(Br)cc3C[C@H]2OC(=O)Nc2ccc(C)c(Br)c2)c1
6%,O=C(Cn1cncn1)NCCC(c1ccccc1)c1ccccc1
5%,COCCNC(=O)c1ccc2c(c1)NC(=O)C(CS(=O)(=O)Cc1ccc(F)cc1Cl)N2 (stereo not drawn)
4%,Cc1cc(Nc2nn(C)c(N)c2C#N)ccc1F
4%,O=C(CN(C(=O)c1csnn1)c1ccc(F)c(Cl)c1)NCc1ccccc1
-13%,O=C(O)CCCC(=O)Nc1nncs1
-13%,Cc1ccc(CC(=O)NC2CCN(Cc3ccccc3)CC2)cc1
-14%,Cc1c(C(=O)N2CCCCCC2)nnn1-c1nonc1N

2 records drawn at random from the list so far:
VDR inh,mol
-1%,O=C(CNS(=O)(=O)c1ccc(F)cc1)N1CCOCC1
-7%,Cn1c(SCCOc2ccccc2F)nc2ccccc2c1=O

The listing picks up with the 5 entries that preceded the break.
VDR inh,mol
4%,Cc1cc(Nc2nn(C)c(N)c2C#N)ccc1F
4%,O=C(CN(C(=O)c1csnn1)c1ccc(F)c(Cl)c1)NCc1ccccc1
-13%,O=C(O)CCCC(=O)Nc1nncs1
-13%,Cc1ccc(CC(=O)NC2CCN(Cc3ccccc3)CC2)cc1
-14%,Cc1c(C(=O)N2CCCCCC2)nnn1-c1nonc1N
-19%,CS(=O)(=O)N(CC(=O)N1CCc2ccccc2C1)c1ccccc1Br
0%,CNc1oc(Cc2ccccc2)nc1S(=O)(=O)c1ccc(Cl)cc1
0%,Cc1ccc2c(c1)c(-c1csc(N)n1)c(C)n2C
-5%,CCN1C(=O)N(CC)C(O)(c2ccccc2)C1(O)c1ccccc1 (stereo not drawn)
-8%,CCOc1c2ccoc2nc2c(OC)c(OC)ccc12
11%,CC(OC(=O)c1ccncc1)C(=O)Nc1cccc(Cl)c1 (stereo not drawn)
-8%&8%,COc1cc(OC)cc(N2CCN(S(=O)(=O)c3ccc(-n4cnnn4)cc3)CC2)c1
-15%,CC(=O)c1c(C)nc(-c2ccccc2)nc1N
1%,CCC(=O)c1ccc(OCC(O)CN2CCN(c3ccc(F)cc3)CC2)cc1 (stereo not drawn)
-7%,COCCCNC(=O)c1cc(C(=O)Cc2ccccc2)c[nH]1
0%,Cc1ccc(OCc2cc(C(=O)N(C)Cc3cnn(-c4ccccc4C)c3)no2)cn1
20%,Cc1ccc(S(=O)(=O)NCC(=O)NCC(=O)OCc2c(F)cccc2Cl)cc1
?,C/C=C\C=C\C(=O)N1CC2(CC(c3cccc(NC(=O)CC(c4ccccc4)c4ccccc4)c3)=NO2)C[C@H]1C(N)=O (stereo partly drawn)
-5%,O=C(Nc1ccc2c(c1)OCCO2)c1cc(-c2ccccn2)nc2ccc(Br)cc12
-13%,Cc1sc2ncnc(Nc3ccc(O)cc3)c2c1C
44%[activator],COc1ccc(C(=O)COC(=O)c2ccc([N+](=O)[O-])s2)cc1OC
14%,Cc1ccc(-c2[nH]nc(N)c2N=Nc2cccc(Cl)c2C)cc1
-13%,CCCOc1ccc(CSCCNC(=S)Nc2ccccc2)cc1
-3%,CCOc1ccc(NC(=O)CN(C)C(=O)CCC2CCCCC2)cc1OCC
-19%,COc1cccc(/C=C/C(=O)c2ccc[nH]2)c1
4%,C/C(CC(=O)Nc1cccc2c1CCCC2)=N\NC(=O)COc1ccccc1
-10%,O=C(c1ccc2c(c1)OCO2)N1CCC2(CC1)Oc1ccc(F)cc1C(=O)C21CC(c2ccccc2)=NO1 (stereo not drawn)
1%,CCOc1ccccc1OCCn1nnc2ccccc21
20%,CCOC(=O)C(/C(N)=N/C(=O)Nc1ccccc1)=C(\C)O

Some of the compounds tested. The share of hits here may be higher or lower than overall.
